Rango complex inh = inhibitors of Rango-importin beta complex formation; Potency, µM (top dose mostly 92.2 µM), for the others: at the top dose inhibition of complex formation; Rango CFP/YFP FRET sensor + importin beta, 45 min; actives 0.031% (n = 340,000); Q14974; AID 540263; active = rising FRET ratio curve, often small or poorly fitted; inconclusive = mostly compound fluorescence or quenching in the first reads; inactive = flat curves in all reads;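 note: potency is the fitted concentration of half-maximal effect; 0% = DMSO wells and 100% = buffer wells lacking importin beta; nearly all actives have a fitted effect of over 15% in size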
Target sequence (Q14974 whole entry, looked up): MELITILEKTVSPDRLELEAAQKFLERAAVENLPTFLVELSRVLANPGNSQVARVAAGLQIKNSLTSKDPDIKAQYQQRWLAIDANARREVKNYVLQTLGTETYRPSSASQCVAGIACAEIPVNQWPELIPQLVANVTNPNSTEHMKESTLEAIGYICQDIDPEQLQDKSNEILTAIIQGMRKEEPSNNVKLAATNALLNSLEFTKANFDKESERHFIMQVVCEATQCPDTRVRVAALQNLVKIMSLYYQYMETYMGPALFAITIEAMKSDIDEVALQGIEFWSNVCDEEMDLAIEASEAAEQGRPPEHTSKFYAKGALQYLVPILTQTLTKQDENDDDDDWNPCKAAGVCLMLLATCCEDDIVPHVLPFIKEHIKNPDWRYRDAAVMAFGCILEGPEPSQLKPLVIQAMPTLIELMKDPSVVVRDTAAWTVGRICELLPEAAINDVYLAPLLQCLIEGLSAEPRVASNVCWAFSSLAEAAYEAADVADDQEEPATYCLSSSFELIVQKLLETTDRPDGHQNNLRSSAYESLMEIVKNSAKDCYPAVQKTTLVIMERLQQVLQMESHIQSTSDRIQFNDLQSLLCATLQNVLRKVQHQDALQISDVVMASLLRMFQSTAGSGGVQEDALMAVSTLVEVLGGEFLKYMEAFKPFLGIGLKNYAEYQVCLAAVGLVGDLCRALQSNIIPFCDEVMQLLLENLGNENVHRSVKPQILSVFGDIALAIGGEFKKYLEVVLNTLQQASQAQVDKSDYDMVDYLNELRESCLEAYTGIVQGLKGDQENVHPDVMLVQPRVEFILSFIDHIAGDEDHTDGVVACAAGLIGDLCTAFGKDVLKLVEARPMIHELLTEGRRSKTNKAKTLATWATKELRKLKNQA
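FRET biosensor (snurportin 1 IBB flanked by EYFP and cerulean), 50 nM, with compound 5 min, then 0.125 microM importin beta in PBS, 1 mM DTT, 0.02% Tween-20, 0.1% BSA. CFP/YFP ratio read after 45 min at room temperature; pre-read flags interference.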
miR-21 FLuc = raises the signal of a miR-21 reporter | HeLa miR-21 FLuc reporter, luciferase, 48 h | Potency, µM (series often up to 38.3 µM), inactives show top-dose reporter change, positive = more light | 340,000 tested, under 10 active; active = well fitted rising curve with a large enough effect; inconclusive = small, poorly fitted or top-dose-only effect; inactive = no such curve, though single readings can be large or run the other way;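 note: % of control where 0% means no effect; miR-21 action dims this reporter so a rising signal means less miR-21 action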
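Using DMEM plus 10% FBS, HeLa miR-21-FLuc cells are incubated with test compounds (final up to about 40uM) for 48 hours; firefly luciferase signal is then imaged following reagent-mediated lysis.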
GLA inh pH 4.5 = alpha-galactosidase A (human) inhibition, pH 4.5 | P06280 | activity change, negative = inhibition, % at 105 µM | 230,000 tested, under 10 active | purified enzyme, 4-MU-alpha-Gal fluorescence, pH 4.5; inconclusive = small, poorly fitted or top-dose-only inhibition, or a rising curve; inactive = flat fitted curve, though single readings scatter; no compound was filed as active;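 note: 0% = full activity with enzyme and -100% = basal without enzyme; dose as in the result columns while the protocol names 77 µM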
Rango dissoc inh = inhibition of RanGTP-driven Rango-importin beta dissociation. Potency, µM (titrated, usually from 46.1 µM), inactives show at the highest dose activity change, negative = inhibition. AID 540253. O95149+P62826. Biochemical FRET Rango-importin beta, RanGTP-induced dissociation. actives 0.071% (n = 340,000); active means falling FRET ratio curve, often poorly fitted, with flat reads before Ran was added; inconclusive means other falling curves, or compound fluorescence or quenching; inactive means flat or rising ratio curve;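 note: potency is the fitted concentration of half-maximal effect; % of control where 0% means no effect; nearly all actives have a fitted effect of over 45% in size; -100% = wells without RanGTP and RCC1; the record marks most hits as doubtful in a second field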
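Quantitative HTS using a FRET biosensor: 0.1 uM Rango, 0.25 uM importin beta, 0.6 uM Ran, 2 mM GTP, 0.2 uM RCC1 final, PBS with DTT, Tween-20 and BSA. Post-read taken 45 min after Ran addition.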
An asterisk follows results filed as active; ? = inconclusive; . = no result given; & = joins results of further samples; [ ] = remark or other dose. These rows are one share of the data (hit frequency here may not be typical).

| GLA inh pH 4.5 | miR-21 FLuc | Rango complex inh | canonical_smiles | Rango dissoc inh |
| --- | --- | --- | --- | --- |
| 7 | -8% | 2.0% | O=C(/C=C/c1ccco1)N1CCN(S(=O)(=O)c2ccc(F)c(F)c2F)CC1 | -15% |
| 0 | -14% | 0.7% | Cc1ccnc(NS(=O)(=O)c2ccc(NC(=O)/C=C/c3ccccc3)cc2)n1 | 0% |
| . | . | 0.6% | CCCN(C(=O)CSc1nnc2ccccn12)C1CCS(=O)(=O)C1 (stereo not drawn) | -4% |
| . | -1% | 0.1% | Cc1ccc(S(=O)(=O)N2CN(CC3CCCO3)c3nc4ccccc4nc32)c(C)c1 (stereo not drawn) | -4% |
| . | . | -0.5% | CC12C=CC(=O)C=C1CCC1C2C(O)CC2(C)C1CCC2(O)C(=O)CO (stereo not drawn) | 6% |
| -8 | -2% | 0.6% | COc1ccccc1NC(=O)CN(Cc1ccco1)C(=O)c1cccs1 | 7% |
| 8 | 0% | -2.2% | C=CCC1c2cccc(C(=O)O)c2C(=O)N1c1cccc(C)c1 (stereo not drawn) | 4% |
| 3 | -2% | 2.9% | CCN(C(=O)COc1cccc2cccnc12)C1CCS(=O)(=O)C1 (stereo not drawn) | -8% |
| -2[21.1 µM] | -20% | 0.2% | CCC/C(=N/NC(=O)c1ccccc1Cl)c1ccccc1 | -8% |
| . | . | 0.6% | CNc1nc(Cl)nc2ncn(C)c12 | 0% |
| 2 | -22% | ? | CCN(CC)CCn1c(=O)n(-c2ccc(Cl)cc2)c(=O)c2c3c(sc21)CN(C)CC3 | -15% |
| . | . | ? | Cc1cccc(NC(=O)CN2CCN(C(=O)c3ccc(-c4nc5ccccc5s4)o3)CC2)c1C | 0% |
| -7 | -23% | -2.6% | CCc1ccc(OCCn2cccn2)cc1 | 1% |
| 6 | 0% | -0.1% | CCc1ccccc1NC(=O)CSc1nc2c(c(-c3ccco3)c1C#N)CCCC2 | 2% |
| -4 | -61% | 5.4% | CCc1ccc(C(=O)CCC2CCCCC2=O)cc1 (stereo not drawn) | 22% |
| . | -2% | -0.6% | O=C(Cn1c(=O)oc2ccccc21)Nc1ccc(Cl)cc1 | -4% |
| . | -1% | -1.3% | Cn1c(=O)c(=O)n(C)c2cc(N3CCCCC3)c(NS(=O)(=O)c3ccc(Br)cc3)cc21 | -17% |
| -1 | -6% | 1.5% | O=C(OCc1ccc(F)cc1)c1ccc2ccccc2n1 | 2% |
| . | 0% | -4.4% | CC(=O)Nc1ccc(NC(=O)CCCCCn2nnc3ccccc3c2=O)cc1 | 0% |
| 4 | -4% | 0.0% | CCn1c(=O)c(C(=O)NNS(=O)(=O)c2ccc(C)cc2)c(O)c2ccccc21 | 15% |
| 3 | -15% | -1.3% | COc1ccc(NC(=O)CNc2cc(S(=O)(=O)N3CCOCC3)ccc2NCC2CCCO2)cc1 (stereo not drawn) | 6% |
| 4 | 0% | 1.8% | CCc1cc(=O)oc2cc(OCC(N)=O)c(Cl)cc12 | -15% |
| 6 | -2% | 3.4% | CC(C)CCN1C(=O)c2ccc(C(=O)OCn3nnc4ccccc4c3=O)cc2C1=O | -5% |
| -2 | -1% | 0.5% | CCOC(=O)Cc1csc(NC(=O)COc2cccc(C)c2)n1 | 12% |
| . | . | 1.5% | Cc1cc(=O)oc2cc(NC(=O)COc3cccc(C(F)(F)F)c3)ccc12 | 4% |

Entries of single compounds, looked up by structure. Screens in order: GLA inh pH 4.5, miR-21 FLuc, Rango complex inh, Rango dissoc inh
Profile of CCc1ccccc1NC(=O)CSc1nc2c(c(-c3ccco3)c1C#N)CCCC2 → 6, 0%, -0.1%, 2%
Profile of O=C(Cn1c(=O)oc2ccccc21)Nc1ccc(Cl)cc1 → ., -2%, -0.6%, -4%
Profile of CNc1nc(Cl)nc2ncn(C)c12 → ., ., 0.6%, 0%

(further entries)
| GLA inh pH 4.5 | miR-21 FLuc | Rango complex inh | canonical_smiles | Rango dissoc inh |
| --- | --- | --- | --- | --- |
| 5 | 7% | 4.2% | CCn1c(Cn2nnc(-c3ccccc3)n2)nnc1SCC(=O)Nc1cccc(C(C)=O)c1 | 8% |
| -3 | -3% | -3.8% | Cn1c(Cn2c(=O)sc3ccccc32)nnc1SCC(=O)Nc1ccc(F)cc1 | 15% |
| . | 0% | 1.1% | O=C(O)c1ccc(N=C2NC(=O)C(CO)(CO)S2)cc1 | 17% |
| -21 | -12% | -0.1% | Cc1nc(NS(=O)(=O)c2ccccc2)sc1C(=O)N/N=C/c1ccccc1 | 1% |
| . | 0% | -0.2% | O=C(COc1ccc(S(=O)(=O)N2CCCCC2)cc1)N1CCCC1 | -1% |
| 16 | -1% | ? | Cc1ccc(-c2cn3nc(C)c(C)nc3n2)cc1 | ? |
| 4 | -14% | -0.2% | COc1cccc(C2CC(c3c(Cl)cccc3Cl)n3nc(N)nc3N2)c1 (stereo not drawn) | -3% |
| . | . | -3.5% | S=c1ncc2[nH]c(=S)[nH]c2[nH]1 | 1% |
| 0 | -44% | -2.8% | O=C(C1COc2ccccc2O1)N1CCc2ccccc21 (stereo not drawn) | 11% |
| 0 | -13% | 1.3% | OCCN1CCN(CCCc2c3c(cc4c2CCC4)CCC3)CC1 | 21% |
| 3 | 3% | -3.8% | Cc1cccc(N2CCN(C(=O)c3ccc(NC(=O)C4CCCO4)cc3)CC2C)c1 (stereo not drawn) | 9% |
| 0 | -1% | -0.5% | Cc1cc(C)n(/C(=C/N(C)C)C(=O)c2ccccc2)n1 | 0% |
| -6 | -1% | -4.9% | Fc1ccccc1-c1nc(NCCCN2CCOCC2)c2ccccc2n1 | 12% |
| 4 | -30% | -2.3% | COc1ccc2c(c1)C1=NN(/C(C)=C/C(C)=O)C(c3cccc(F)c3)C1CC2 (stereo not drawn) | -8% |
| . | 2% | -2.5% | Cc1ccccc1NS(=O)(=O)c1cccc2nonc12 | -10% |
| -3 | 1% | 2.9% | CCOC(=O)C(NC=O)(NC(C)(C)C)C(=O)OCC | 5% |
| . | 0% | 0.8% | Nc1ncnc2sc3c(c12)CCNC3 | 6% |
| . | -10% | -1.1% | Cc1ccc(C(=O)Nc2cccnc2)cc1S(=O)(=O)N1CCCC1 | 4% |
| -1 | 2% | -0.1% | O=C(COC(=O)CCc1ccccc1)Nc1cc(S(=O)(=O)N2CCOCC2)ccc1N1CCCC1 | 3% |
| -3 | -15% | 9.8% | Cc1nonc1NC(=O)CSc1ccc(-c2ccccc2)nn1 | -14% |
| -4 | -2% | -1.2% | CCCCSC1=N/C(=C/c2ccsc2)C(=O)N1c1ccccc1 | 2% |
| -2 | -5% | 9.0% | COc1ccc(CCNC(=O)Cn2c(=O)oc3ccccc32)cc1OC | 0% |
| 1 | -40% | -0.5% | Nc1nonc1-c1noc(N2CCCCC2)n1 | 1% |
| -30 | -12% | 2.3% | CCc1cccc(OCCn2nc(C(=O)O)c3ccccc3c2=O)c1 | 17% |
| -1 | 1% | -0.7% | COc1ccc(-c2nnn(Cc3nn[nH]n3)n2)cc1OC | -3% |

Of the compounds above, 2 contain an NH in an aromatic ring.
| GLA inh pH 4.5 | miR-21 FLuc | Rango complex inh | canonical_smiles | Rango dissoc inh |
| --- | --- | --- | --- | --- |
| . | . | -3.5% | S=c1ncc2[nH]c(=S)[nH]c2[nH]1 | 1% |
| -1 | 1% | -0.7% | COc1ccc(-c2nnn(Cc3nn[nH]n3)n2)cc1OC | -3% |

Ordered by value in GLA inh pH 4.5 (descending): 3 from the list above.
| GLA inh pH 4.5 | miR-21 FLuc | Rango complex inh | canonical_smiles | Rango dissoc inh |
| --- | --- | --- | --- | --- |
| 0 | -13% | 1.3% | OCCN1CCN(CCCc2c3c(cc4c2CCC4)CCC3)CC1 | 21% |
| -1 | 2% | -0.1% | O=C(COC(=O)CCc1ccccc1)Nc1cc(S(=O)(=O)N2CCOCC2)ccc1N1CCCC1 | 3% |
| -21 | -12% | -0.1% | Cc1nc(NS(=O)(=O)c2ccccc2)sc1C(=O)N/N=C/c1ccccc1 | 1% |

(cont.)
| GLA inh pH 4.5 | miR-21 FLuc | Rango complex inh | canonical_smiles | Rango dissoc inh |
| --- | --- | --- | --- | --- |
| -8 | 1% | 2.7% | COc1cc(C(=O)Nc2ccncc2)cc(OC)c1OC | 19% |
| . | 1% | -0.2% | COC(=O)CCC(=O)NNC(=O)C1CC1(c1ccccc1)c1ccccc1 (stereo not drawn) | -1% |
| . | -21% | 2.3% | COc1cccc(NC(=O)C2CCN(C(=O)[C@@H]3Cc4ccccc4CN3)CC2)c1 | -15% |
| . | 0% | -0.5% | COCCNC(=O)CN(Cc1ccccc1)S(=O)(=O)c1ccc2nc(C)sc2c1 | 8% |
| 3 | -6% | -0.1% | Cc1ccc(S(=O)(=O)N2CCCC(C(=O)Nc3ccc(C(=O)O)cc3)C2)cc1Cl (stereo not drawn) | -11% |
| . | 1% | -3.0% | CCN(CC)C(=O)CSc1nc2sc3c(c2c(=O)n1CCOC)CCC3 | -9% |
| -6 | 0% | -3.6% | N/C(Cc1ccc(Cl)c(Cl)c1)=N\OC(=O)c1ccc(Br)o1 | -5% |
| -4 | -12% | -3.7% | CCC12CN3CCN(CC(C3)/C1=N\NC(=O)Nc1ccccc1)C2 | 0% |
| . | . | -2.5% | CC(=O)c1cccc(S(=O)(=O)Nc2cc(C(F)(F)F)ccc2N2CCOCC2)c1 | 1% |
| -1 | -7% | ? | Cc1cc(C)cc(NC(=O)C2CCCN2/C=C/C(=O)C(F)(F)F)c1 (stereo not drawn) | 12% |
| -2 | -4% | 1.6% | CCOC(=O)c1c(CN(C)C)n(-c2ccccc2)c2cc(Br)c(O)cc12 | 13% |
| . | . | -3.5% | O=C(Nc1c[nH]c(=O)[nH]c1=O)OCc1ccccc1 | -7% |
| 0 | -10% | ? | CC1CCCCC1NC(=O)CSCC(=O)O (stereo not drawn) | -3% |
| 6 | -15% | 1.8% | c1ccc2c(c1)COC(CNC1CCCCC1)OC2 | 15% |
| . | . | 1.7% | Cc1cc(C)c(C)c(S(=O)(=O)N2CCN(C(=O)c3ccccn3)CC2)c1C | -7% |
| 6 | -14% | . | Cc1nc2cc(N3CCCCC3)c(NC(=O)c3ccncc3)cc2c(=O)n1Cc1ccc(Cl)cc1 | . |
| -10 | -1% | 0.5% | CCN(CC)S(=O)(=O)c1ccc2c(c1)N(CC(=O)NCCc1ccc(S(N)(=O)=O)cc1)C(=O)CO2 | 10% |
| -2 | -2% | 4.1% | O=C(CCn1nc(-c2ccc(Cl)cc2)ccc1=O)NCc1cccnc1 | 11% |
| -13 | -6% | 7.0% | CCOC(=O)c1c(C)nc2c(c1-c1cc(OC)ccc1OC)C(=O)c1ccccc1-2 | 2% |
| -2 | -48% | ? | Cc1ccc2c3c(cccc13)-c1ccccc1C2=O | ? |
| -12 | -9% | 2.4% | COc1ccc(C2(O)CCN(Cc3nnnn3Cc3ccc(F)cc3)CC2)cc1 | 8% |
| -12 | . | 0.0% | COc1ccccc1C1CC(=O)Oc2c(C(C)C)ccc(C)c21 (stereo not drawn) | 37% |
| . | . | 4.8% | Cc1ccc(C(=O)CCC(=O)OCC(=O)Nc2ccccc2SCC#N)cc1 | 2% |
| 1 | -5% | 5.3% | COc1ccccc1CNC(=O)CSc1ccc(-c2ccccn2)nn1 | -8% |
| -1 | -5% | -3.4% | COc1ccc(C(CC(=O)O)NC(=O)Cc2ccccc2)cc1OC (stereo not drawn) | -23% |
| -3 | 0% | 9.2% | CC1CN(C2CCN(S(=O)(=O)c3ccccc3)CC2)CC(C)O1 (stereo not drawn) | 5% |
| . | 3% | 3.6% | CCOc1ccc(N2CC(C(=O)NCCc3c[nH]c4ccc(OC)cc34)CC2=O)cc1 (stereo not drawn) | 2% |
| -10&0 | . | -1.2% | COc1ccc(C(=O)NCc2cccnc2)cc1C(=O)NCc1cccnc1 | -5% |
| -21 | -7% | 2.6% | Cc1ccc(C(=O)Nc2nc3ccccc3n3nnnc23)cc1 | -4% |
| . | -6% | -0.3% | CCc1cc(=O)oc2c(C)c(OCC(=O)NC3CC(C)(C)NC(C)(C)C3)ccc12 | 10% |
| -14 | 0% | -2.5% | COc1ccccc1N(C)S(=O)(=O)c1ccc(C(=O)OCC(=O)Nc2cc(C)on2)cc1 | 14% |
